Screening data: PubChem BioAssay, several laboratories
FPR ligand: binds the human formylpeptide receptor FPR | FPR-expressing cells, fluorescent ligand binding, flow cytometry | AID 440 | inhibition, %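 (tested at 6.7 µM)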 | P21462 | 0.74% of 24,000 active;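 note: 0% = buffer wells and 100% = receptor blocker peptide wells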
Target sequence (P21462 whole entry, looked up): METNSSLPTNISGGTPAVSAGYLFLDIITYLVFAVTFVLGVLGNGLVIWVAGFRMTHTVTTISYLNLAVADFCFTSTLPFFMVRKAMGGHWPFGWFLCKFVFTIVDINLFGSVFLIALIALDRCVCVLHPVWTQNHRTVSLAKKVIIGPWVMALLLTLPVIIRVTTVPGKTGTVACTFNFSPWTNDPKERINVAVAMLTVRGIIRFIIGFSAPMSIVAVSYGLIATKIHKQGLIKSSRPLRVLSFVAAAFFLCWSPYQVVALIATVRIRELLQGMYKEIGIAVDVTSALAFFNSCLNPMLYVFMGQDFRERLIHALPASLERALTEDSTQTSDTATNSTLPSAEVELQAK
VCAM-1 down: suppression of endothelial VCAM-1 upregulation – cell-based, plate reader, pooled HUVEC, TNFa stimulus (AID 454) | HUVEC TNFa-induced VCAM-1 surface immunofluorescence, plate reader; numbers were filed only for top-ranked candidate wells | inhibition, % at 5 µM | 0.2% of 10,000 active;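 active = compound among top-ranked inhibitors of TNF-induced VCAM-1 adhesion protein staining, with the hit upheld by image or statistical review; inactive = the rest, including hits rejected on review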;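 note: 0% = TNFa with vehicle and 100% = cells without TNFa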
FPRL1 binder: human FPRL1 ligand, with FPR counter-screen. 0.3% of 24,000 active. inhibition, %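 (tested at 6.7 µM)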. P25090. FPRL1-expressing cells, fluorescent ligand binding inhibition, flow cytometry;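 note: 0% = buffer alone and 100% = receptor blocker peptide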
Target sequence (P25090 whole entry, looked up): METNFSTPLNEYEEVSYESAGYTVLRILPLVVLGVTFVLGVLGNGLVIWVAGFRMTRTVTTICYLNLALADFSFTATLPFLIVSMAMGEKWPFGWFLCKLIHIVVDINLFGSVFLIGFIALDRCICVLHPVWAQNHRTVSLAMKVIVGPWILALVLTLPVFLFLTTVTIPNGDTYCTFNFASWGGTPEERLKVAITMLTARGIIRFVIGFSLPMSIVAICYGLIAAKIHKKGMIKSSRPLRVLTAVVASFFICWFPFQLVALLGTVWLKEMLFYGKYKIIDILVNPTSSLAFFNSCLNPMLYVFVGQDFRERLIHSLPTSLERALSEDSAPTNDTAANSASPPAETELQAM
VCAM-1 up imaging: enhancers of VCAM-1 display on endothelial cells, imaging, high-content imaging, pooled HUVEC, TNFa stimulus (AID 457); Pooled HUVEC, TNFa-induced VCAM-1 immunofluorescence imaging; hits of this screen are not shown here; calls only; 0.2% of 10,000 active;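 active = a top-ranked rise in VCAM-1 staining upheld on image or statistical review; inactive = the rest, including candidates rejected on review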;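 note: compounds tested at 5 µM in the well; cells exposed to compound for 24 hours before fixing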
VCAM-1 imaging: suppression of endothelial VCAM-1 upregulation – imaging, high-content imaging, pooled HUVEC, TNFa stimulus (AID 456); HUVEC TNFa-induced VCAM-1 surface expression, immunofluorescence imaging; numbers were filed only for top-ranked candidate wells; 0.2% of 10,000 active; inhibition, % at 5 µM; hits with a dose series show IC50 in µM;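 active = top tenth filtered wells with inhibition above zero that passed visual or statistical confirmation; inactive = the rest, including hits rejected on review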;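 note: 0% = stimulated vehicle wells and 100% = unstimulated cells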
Active calls of the source: *.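 Rule for the calls, unless noted: active = mean above 30%; inconclusive = self-fluorescent; inactive = the rest.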 An excerpt, so the mix of outcomes need not match the whole.

Start of the listing, in advance, 8 compounds:
For Cc1cccn2c(=O)c3cc(C(=O)NCC4CCCO4)n(C)c3nc12 (stereo not drawn) the results were FPR ligand 2 and FPRL1 binder -7.
Screening CN1CCN(C(=O)C(Cc2ccccc2)NS(=O)(=O)c2ccc3c(c2)CCC(=O)N3)CC1 (stereo not drawn) returned FPR ligand -3 and FPRL1 binder 4.
COc1ccc(-c2cc(C(=O)N3CCN(C(c4ccccc4)c4ccccc4)CC3)no2)cc1OC was read as FPR ligand -3 and FPRL1 binder -4.
`Cc1cccc(NC(=O)c2oc3ccc(S(=O)(=O)N4CCOCC4)cc3c2C)c1C` gave FPR ligand 5 and FPRL1 binder -20.
Screening Cc1nonc1NC(=O)N1CCCC1 returned FPR ligand 1 and FPRL1 binder -1.
O=C(OC1CCOC1=O)c1ccc2ccccc2n1 (stereo not drawn) was read as FPR ligand 1, VCAM-1 down inactive, FPRL1 binder -5, VCAM-1 up imaging inactive and VCAM-1 imaging inactive.
Screening CC(C)COC(=O)n1ccc(C(=O)N2CCCCC2)n1 returned FPR ligand -6 and FPRL1 binder 3.
Screening Cn1c(Cn2c(=O)sc3ccccc32)nnc1SCC(=O)NC1CCCCC1 returned FPR ligand -5 and FPRL1 binder 0.

The listing, from the first entry:
For Cc1cccn2c(=O)c3cc(C(=O)NCC4CCCO4)n(C)c3nc12 (stereo not drawn) the results were FPR ligand 2 and FPRL1 binder -7.
Screening CN1CCN(C(=O)C(Cc2ccccc2)NS(=O)(=O)c2ccc3c(c2)CCC(=O)N3)CC1 (stereo not drawn) returned FPR ligand -3 and FPRL1 binder 4.
COc1ccc(-c2cc(C(=O)N3CCN(C(c4ccccc4)c4ccccc4)CC3)no2)cc1OC was read as FPR ligand -3 and FPRL1 binder -4.
`Cc1cccc(NC(=O)c2oc3ccc(S(=O)(=O)N4CCOCC4)cc3c2C)c1C` gave FPR ligand 5 and FPRL1 binder -20.
Screening Cc1nonc1NC(=O)N1CCCC1 returned FPR ligand 1 and FPRL1 binder -1.
O=C(OC1CCOC1=O)c1ccc2ccccc2n1 (stereo not drawn) was read as FPR ligand 1, VCAM-1 down inactive, FPRL1 binder -5, VCAM-1 up imaging inactive and VCAM-1 imaging inactive.
Screening CC(C)COC(=O)n1ccc(C(=O)N2CCCCC2)n1 returned FPR ligand -6 and FPRL1 binder 3.
Screening Cn1c(Cn2c(=O)sc3ccccc32)nnc1SCC(=O)NC1CCCCC1 returned FPR ligand -5 and FPRL1 binder 0.
`CCOc1cc2[nH]c(=S)n(CC3CCCO3)c(=O)c2cc1OCC` (stereo not drawn) gave FPR ligand 14, VCAM-1 down inactive, FPRL1 binder -1, VCAM-1 up imaging inactive and VCAM-1 imaging inactive.
For CN(c1ccccc1)c1nc(N2CCCC2)nc(-n2ccnc2)n1 the results were FPR ligand -6 and FPRL1 binder 2.
c1ccc(CNC2=NCCC2)nc1 was read as FPR ligand -1, VCAM-1 down inactive, FPRL1 binder 8, VCAM-1 up imaging inactive and VCAM-1 imaging inactive.
Screening C=CCn1c(=O)[nH]c2cc(C(=O)N3CCN(c4cccc(Cl)c4)CC3)ccc2c1=O returned FPR ligand 9 and FPRL1 binder 8.
Screening CNS(=O)(=O)c1cccc(C(=O)OCC(=O)c2cc(C)n(-c3ccc4c(c3)OCO4)c2C)c1 returned FPR ligand 1, VCAM-1 down inactive, FPRL1 binder -2, VCAM-1 up imaging inactive and VCAM-1 imaging inactive.
`CC(Oc1ccc(Cl)cc1Cl)c1nc(-c2ccc(NC(=O)c3cccnc3)cc2)no1` (stereo not drawn) gave FPR ligand 10, VCAM-1 down 72*, FPRL1 binder -4, VCAM-1 up imaging inactive and VCAM-1 imaging inactive.
`CC(=O)Nc1ccc(S(=O)(=O)N2CCN(c3ccc(C)c(Cl)c3)CC2)cc1` gave FPR ligand 2 and FPRL1 binder 2.
COc1ccc(N2CC(C(=O)NC3CC(C)(C)NC(C)(C)C3)CC2=O)cc1 (stereo not drawn) was read as FPR ligand -3 and FPRL1 binder -2.
`Cc1sc2nc(SCC(=O)N3CCN(CCO)CC3)n(-c3ccccc3)c(=O)c2c1C` gave FPR ligand 2, VCAM-1 down inactive, FPRL1 binder -2, VCAM-1 up imaging inactive and VCAM-1 imaging inactive.
`COC(=O)c1sc(Nc2ccccc2)nc1C` gave FPR ligand 0 and FPRL1 binder 5.
Screening CCOc1ccccc1C1NC(=O)NC(C)=C1C(=O)OC1CCCC1C (stereo not drawn) returned FPR ligand -2, VCAM-1 down inactive, FPRL1 binder -1, VCAM-1 up imaging inactive and VCAM-1 imaging inactive.
`CCN(CCCNC(=O)Cn1cc2c(n1)CCCC2)c1cccc(C)c1` gave FPR ligand 13 and FPRL1 binder 8.
`Cc1ccc(-n2ncc3c(=O)n(CC#N)cnc32)cc1C` gave FPR ligand 0 and FPRL1 binder 5.
`CCOC(=O)c1cnc2nc(C)[nH]n2c1=O` gave FPR ligand 0 and FPRL1 binder 0.
For COc1ccc(N(CC(=O)N2CCN(Cc3ccc4c(c3)OCO4)CC2)S(C)(=O)=O)cc1OC the results were FPR ligand 0, VCAM-1 down inactive, FPRL1 binder -2, VCAM-1 up imaging inactive and VCAM-1 imaging inactive.
COc1cccc(-n2c(Cc3cc(=O)[nH]c(=O)[nH]3)nnc2SCC(=O)N2CCCCC2)c1 was read as FPR ligand 2 and FPRL1 binder 2.
Screening O=C1CC2CS(=O)(=O)CC2N1c1ccc(Oc2ccccc2)cc1 (stereo not drawn) returned FPR ligand 3, VCAM-1 down inactive, FPRL1 binder 1, VCAM-1 up imaging inactive and VCAM-1 imaging inactive.
For CCOC(=O)C1=C(C)N=C2SC(C)C(=O)N2C1c1ccc(OCC)c(OCC)c1 (stereo not drawn) the results were FPR ligand 1 and FPRL1 binder 7.
`Cc1ccc(C)c(N(CC(=O)NCc2ccco2)C(=O)CCC(=O)Nc2ccccn2)c1` gave FPR ligand 19, VCAM-1 down inactive, FPRL1 binder -4, VCAM-1 up imaging inactive and VCAM-1 imaging inactive.
Screening CC(C)(C)OC(=O)N1CCC(c2c(C(=O)O)cnn2-c2ccc(Cl)cc2)CC1 returned FPR ligand 9 and FPRL1 binder 12.
COCCCNC(=O)C1CC(=O)N(CCc2ccc(OC)c(OC)c2)C1 (stereo not drawn) was read as FPR ligand -2 and FPRL1 binder 8.
O=C1CC(/C=C/c2ccco2)=Nc2ccccc2N1 was read as FPR ligand 14 and FPRL1 binder 0.
CCOc1ccc(C2C(C(=O)c3ccc(C)o3)=C(O)C(=O)N2CCN2CCOCC2)cc1OC (stereo not drawn) was read as FPR ligand 2 and FPRL1 binder 0.
Cc1cc(NS(=O)(=O)c2ccc(NC(=O)COc3ccccc3C(C)C)cc2)no1 was read as FPR ligand 0, VCAM-1 down inactive, FPRL1 binder 0, VCAM-1 up imaging inactive and VCAM-1 imaging inactive.
`Cc1csc(NC(=O)NC2(C(F)(F)F)Oc3ccccc3O2)n1` gave FPR ligand -8 and FPRL1 binder 4.
`COc1cccc(-n2nnc3c(=O)n(Cc4ccccc4F)cnc32)c1` gave FPR ligand -1 and FPRL1 binder -2.
`O=C(CCN1C(=O)C2C3C=CC(C3)C2C1=O)Nc1ccccc1F` (stereo not drawn) gave FPR ligand 3 and FPRL1 binder 6.
For CCOC(=O)N1CCC(N2CC34C=CC(O3)C(C(=O)Nc3ccc(F)cc3)C4C2=O)CC1 (stereo not drawn) the results were FPR ligand -1 and FPRL1 binder 2.
For COc1cc2c(cc1OC)C(C)N(C(=O)CCN1C(=O)C3C4C=CC(C4)C3C1=O)CC2 (stereo not drawn) the results were FPR ligand -6 and FPRL1 binder -8.
For Cc1ncc(CO)c2cc(S(=O)(=O)c3ccc(F)cc3)c(=O)oc12 the results were FPR ligand 1 and FPRL1 binder 2.
Screening N#CC1=C(N)N(c2ccccc2)C2=C(C(=O)CCC2)C1c1cccs1 (stereo not drawn) returned FPR ligand -4, VCAM-1 down inactive, FPRL1 binder -1, VCAM-1 up imaging inactive and VCAM-1 imaging inactive.
`CC(C)Cc1cc(C(=O)Nc2ccc3c(c2)OCO3)no1` gave FPR ligand 1 and FPRL1 binder 2.
Screening CCS(=O)(=O)N1CCCC(C(=O)NC2CCCCC2C)C1 (stereo not drawn) returned FPR ligand -2 and FPRL1 binder 2.
COc1cc(CN2CCC(C(=O)NC3CCCC3)CC2)ccc1O was read as FPR ligand 16, VCAM-1 down inactive, FPRL1 binder 0, VCAM-1 up imaging inactive and VCAM-1 imaging inactive.
COc1ccc(OC)c(NC2c3ccccc3C(=O)N2c2cccnc2)c1 (stereo not drawn) was read as FPR ligand -9 and FPRL1 binder -5.
`COc1ccccc1CNC(=O)C1CCN(S(=O)(=O)N2CC(C)CC(C)C2)CC1` (stereo not drawn) gave FPR ligand 0 and FPRL1 binder -5.
Screening O=C(O)c1cc(-c2ccccc2)nc2ccccc12 returned FPR ligand 2, VCAM-1 down inactive, FPRL1 binder -4, VCAM-1 up imaging inactive and VCAM-1 imaging inactive.
For CCN(C(C)=O)c1nnc(CSc2nc3ccccc3s2)s1 the results were FPR ligand -7, VCAM-1 down inactive, FPRL1 binder 0, VCAM-1 up imaging inactive and VCAM-1 imaging inactive.
For Cc1cc(C(=O)N2CCN(C(c3ccccc3)c3ccccc3)CC2)no1 the results were FPR ligand 4, VCAM-1 down inactive, FPRL1 binder -1, VCAM-1 up imaging inactive and VCAM-1 imaging inactive.
For CCC(C)NC(=O)CS(=O)Cc1nc(-c2cccc(OC)c2)oc1C (stereo not drawn) the results were FPR ligand -1 and FPRL1 binder -1.
`O=C(NC1CC1)c1cc2c(s1)-c1ccccc1OC2` gave FPR ligand 5 and FPRL1 binder -8.
Cc1cccc(-c2nnc(NC(=O)c3ccc(Cl)cc3)o2)c1 was read as FPR ligand -1 and FPRL1 binder -1.
`COc1cccc(C2=NOC(C(=O)NCCN3CCOCC3)C2)c1` (stereo not drawn) gave FPR ligand -2 and FPRL1 binder 4.
`CCCCCn1c(SCC#N)nc2cc(C(=O)NCC3CCCO3)ccc2c1=O` (stereo not drawn) gave FPR ligand -2 and FPRL1 binder 1.
COC(=O)C1=C(C)OC(N)=C(C#N)C1c1cc(OC)ccc1OC (stereo not drawn) was read as FPR ligand 0 and FPRL1 binder 6.
CCCc1cc(C(=O)NC2CCCC2)no1 was read as FPR ligand 2 and FPRL1 binder -1.
Screening Cc1ccc(S(=O)(=O)n2nc(OC(=O)C3CCCCC3)cc2N)cc1 returned FPR ligand 2 and FPRL1 binder 0.
For O=C(OCn1nnc2ccccc2c1=O)c1cccnc1 the results were FPR ligand 2 and FPRL1 binder -4.
For CCOC(=O)CCc1c(C)nc2c(c(C)nn2C(C)(C)C)c1C the results were FPR ligand 6 and FPRL1 binder -1.
O=C(NCCCN1CCCCC1)c1ccc2c(=O)n(CCc3ccccc3)c(=O)[nH]c2c1 was read as FPR ligand -7 and FPRL1 binder -15.
Screening CCOC(=O)C1=C(C)NC(C)=C(C(=O)OCC)C1c1cc(N)ccc1OC(F)F returned FPR ligand -5, VCAM-1 down inactive, FPRL1 binder 0, VCAM-1 up imaging inactive and VCAM-1 imaging inactive.
`O=C(CC(NS(=O)(=O)c1ccc(Cl)cc1)c1ccco1)NCc1ccco1` (stereo not drawn) gave FPR ligand -5 and FPRL1 binder -4.
O=C(O)C1CCCN1C(=O)OCc1ccccc1 (stereo not drawn) was read as FPR ligand -7 and FPRL1 binder 2.
COc1ccc(N2CCN(C(=O)c3cc4c(-c5ccc(Cl)cc5)nn(C)c4s3)CC2)cc1 was read as FPR ligand -8 and FPRL1 binder -6.
Cc1ccc(-c2nc3cc(N)ccc3o2)cc1 was read as FPR ligand 5, VCAM-1 down inactive, FPRL1 binder 1, VCAM-1 up imaging inactive and VCAM-1 imaging inactive.
Screening COCCn1c(C)c(C(=O)O)sc1=S returned FPR ligand 1, VCAM-1 down inactive, FPRL1 binder 0, VCAM-1 up imaging inactive and VCAM-1 imaging inactive.
`C=C(C)COc1ccc(-c2n[nH]c(C)c2-c2ccccc2)c(O)c1` gave FPR ligand 1, VCAM-1 down inactive, FPRL1 binder -1, VCAM-1 up imaging inactive and VCAM-1 imaging inactive.
For CC(=O)OCC(=O)[C@@]1(O)CC[C@H]2[C@@H]3CCC4=CC(=O)CC[C@]4(C)[C@H]3[C@@H](O)C[C@@]21C the results were FPR ligand 1, VCAM-1 down inactive, FPRL1 binder 4, VCAM-1 up imaging inactive and VCAM-1 imaging inactive.
For CCC1CCCCN1S(=O)(=O)c1ccc(C(=O)Nc2nnc(-c3ccccc3Cl)o2)cc1 (stereo not drawn) the results were FPR ligand 6, VCAM-1 down inactive, FPRL1 binder -1, VCAM-1 up imaging inactive and VCAM-1 imaging inactive.
